Compound activity from PubChem.
LASV entry inh – blocks Lassa virus binding to or entry into cells | Lassa virus pseudotype entry inhibition, cell reporter; control for the full effect not named in the record | Potency, µM (series often up to 37.9 µM), inactives show at the highest dose activity change, negative = inhibition, usual class: inhibitors | 1.2% of 300,000 active | AID 540256; active means well fitted inhibition curve with a large enough effect; inconclusive means small, poorly fitted or top-dose-only effect, or effect the other way; inactive means flat fitted curve, though single readings scatter; tested in HEK293 cells; further: on the % scale 0 is the no-effect control and ±100 the full control effect; nearly all actives have a fitted effect of over 50% in size; luciferase read-out
RE007 growth inh – less growth of the S. pombe RE007 Vpr strain; S. pombe RE007 Vpr strain, BacTiter-Glo ATP luminescence, 24 h; control for the full effect not named in the record; Potency, µM (series often up to 92.2 µM), inactives show at the highest dose activity change, negative = less growth; 0.21% of 360,000 active; active = well fitted falling curve with a large enough effect; inconclusive = small, poorly fitted or top-dose-only effect; inactive = no such curve, though single readings can be large or run the other way;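 further: on the % scale 0 is the no-effect control and ±100 the full control effect; nearly all actives have a fitted effect of over 50% in size; the assay follows cell death caused by Vpr and the record does not say whether a fall means rescue or toxicity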
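Fission yeast RE007 carrying one integrated HIV-1 vpr copy, seeded at OD 0.01 in PMG+AL medium with 23 nL pinned compound. Grown 24 h at 30 degrees; viability read by BacTiter-Glo luminescence after 5 min.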
Marburg entry inh – blocks Marburg virus binding to or entry into cells; 1.8% of 300,000 active; Marburg virus pseudotyped entry inhibition, cell reporter; control for the full effect not named in the record; about a third of the inactives were read at about 46 µM; AID 540276; Potency, µM (highest dose often 37.8 µM), for inactives: at the top dose activity change, negative = inhibition, actives largely listed as inhibitors; active = well fitted inhibition curve with a large enough effect; inconclusive = small, poorly fitted or top-dose-only effect, or effect the other way; inactive = flat fitted curve, though single readings scatter; tested in HEK293 cells; about a fifth of its hits are not listed in these tables; further: on the % scale 0 is the no-effect control and ±100 the full control effect; luciferase read-out
StopGo reporter – FMDV 2A StopGo reporter, luciferase signal; human cells with a luciferase reporter of 2A StopGo recoding; control for the full effect not named in the record; Potency, µM (top dose mostly 57.9 µM), inactives show at the highest dose signal change, negative = less light; 1.2% of 410,000 active; AID 1159524; active = well fitted falling curve with a large enough effect; inconclusive = small, poorly fitted or top-dose-only effect; inactive = no such curve, though single readings can be large or run the other way; tested in HEK293T cells; further: on the % scale 0 is the no-effect control and ±100 the full control effect; nearly all actives have a fitted effect of over 45% in size; luciferase light after 4 h
Cruzain Triton – cruzain (T. cruzi) inhibition with detergent. P25779. purified cruzain, Z-FR-AMC fluorescence, 0.01% Triton. Potency, µM, for the others: max response, negative = inhibition, hits mostly inhibitors. 0.43% of 200,000 active;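 further: plate controls were neutral wells for no effect and buffer without enzyme for full effect; nearly all actives have a fitted effect of over 40% in size; top concentration of the series not given in the record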
Target sequence (P25779 123-467 limits assumed): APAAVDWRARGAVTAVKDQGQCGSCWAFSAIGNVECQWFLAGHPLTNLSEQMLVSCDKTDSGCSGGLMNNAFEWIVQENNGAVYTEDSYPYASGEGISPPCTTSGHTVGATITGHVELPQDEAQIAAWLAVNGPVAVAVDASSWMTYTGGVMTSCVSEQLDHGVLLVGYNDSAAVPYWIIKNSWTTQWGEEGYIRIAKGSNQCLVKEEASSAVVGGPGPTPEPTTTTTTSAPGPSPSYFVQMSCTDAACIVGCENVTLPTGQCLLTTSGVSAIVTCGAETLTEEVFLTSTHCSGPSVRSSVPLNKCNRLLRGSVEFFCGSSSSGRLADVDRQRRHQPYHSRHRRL
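Enzyme 1.5 nM, Z-FR-AMC 2 uM, NaOAc 100 mM pH 5.5, DTT 5 mM, Triton X-100 0.01%; 15 min RT compound preincubation; kinetic ex360/em450, 60 s delta.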
NS1 function inh – blocks influenza NS1 protein function | Potency, µM (titrated, usually from 46.1 µM), for inactives: top-dose activity, positive = more growth | S. cerevisiae slowed by influenza A NS1, growth recovery by OD600 | AID 2326 | 0.4% of 270,000 active; active means well fitted rising curve with a large enough effect; inconclusive means small, poorly fitted or top-dose-only effect; inactive means no such curve, though single readings can be large or run the other way; further: nearly all actives have a fitted effect of over 50% in size
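A cell-based growth assay was used: compounds that relieve NS1-induced slow growth of budding yeast raise OD600. Assay medium was yeast nitrogen base with ammonium sulphate and -URA supplement, pH 6.0, with 2% galactose.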
SARS PLpro yeast – blocks SARS-CoV papain-like protease in a yeast assay. 0.19% of 330,000 active. AID 485353. S. cerevisiae expressing SARS-CoV PLpro, growth rescue; control for the full effect not named in the record. Potency, µM (top dose mostly 32.9 µM), inactives show top-dose activity, positive = growth rescue; active means well fitted rising curve with a large enough effect; inconclusive means small, poorly fitted or top-dose-only effect; inactive means no such curve, though single readings can be large or run the other way; further: 0% is about no effect; nearly all actives have a fitted effect of over 55% in size; growth read by luminescence after 48 h
Cruzain noTriton – cruzain (T. cruzi) inhibition without detergent | Potency, µM, for inactives: max response, negative = inhibition, usual class: inhibitors | purified cruzain, Z-FR-AMC fluorescence, no detergent | 2.3% of 200,000 active;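 further: plate controls were enzyme without inhibitor for no effect and buffer without enzyme for full effect; nearly all actives have a fitted effect of over 40% in size; top concentration of the series not given in the record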
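Purified cruzain at 1.5 nM, pre-incubated 15 min with compound at room temperature in 100 mM sodium acetate pH 5.5, 5 mM DTT, 0.00005% Triton X-100. Reaction started with 2 uM Z-FR-AMC; AMC fluorescence increase over 60 s gives rate.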
Numbers without * were called inactive; ? = inconclusive; . = no result given; [ ] = dose if it differs, or a comment. Unless noted, the call rests on the fitted dose curve; in most records, active means well fitted curve in the direction sought with a large enough effect; inconclusive means small, poorly fitted or top-dose-only effect, or another doubt; inactive means no such curve, though single readings can be large; an effect the other way counts as inactive or inconclusive. Potency means the concentration at half of the fitted maximal effect.

SMILES	LASV entry inh	RE007 growth inh	Marburg entry inh	StopGo reporter	Cruzain Triton	NS1 function inh	SARS PLpro yeast	Cruzain noTriton
Cc1cccc(-n2c(C)nc3cc(C(=O)N4CCC5(CC4)OCCO5)ccc32)c1	?	-7%	?	31%[activator]	1.6%	-15%	11%	5%
CCOC(=O)c1c(N)c(C#N)c2n1CCCCC2	3%	2%	-3%[46.1 µM]	-4%	9.6%	-8%	-4%	-1%
CC(=O)/C(=C(/O)c1ccccc1)c1nc2ccccc2[nH]1	12%	-10%	-10%	13%	.	.	-1%	.
CCN(CC)C(=O)CSc1ncnc2sccc12	14%[46.1 µM]	0%	14%[46.1 µM]	26%	.	.	3%	.
COc1cccc(C(=O)N2CCC(n3nccc3NC(=O)C(OC)c3ccccc3)CC2)c1 (stereo not drawn)	9%	8%	0%	-6%	.	-6%	-1%	.
CC(=O)Nc1ccc(S(=O)(=O)NCC2CC3CCC2C3)cc1 (stereo not drawn)	2%[46.1 µM]	4%	-20%[46.1 µM]	31%[activator]	.	.	.	.
COc1cc(CCC(=O)Nc2sccc2C#N)cc(OC)c1OC	-4%[46.1 µM]	1%	?	-27%	.	18%	0%	.
CCOc1ccc2nc(NC(=O)C(CC)Sc3nc(C)cc(=O)[nH]3)sc2c1 (stereo not drawn)	-30%	-16%	?	14%	-8.0%	-59%	-18%	-1%
O=C(Nc1ccc(Cn2ccnc2)cc1)c1cccc(C(F)(F)F)c1	.	15%	.	-6%	.	-1%	14%	.
COc1cccc(-n2nc3c(=S)[nH]nc(C)c3c2C)c1	-2%	1%	6%	18%	3.0%	8%	4%	11%
CC1=C(C(=O)N2CCCC(N3CCN(c4cccc(Cl)c4)CC3)C2)OCCO1 (stereo not drawn)	-3%	-16%	3%	-5%	.	-20%	-4%	.
Fc1ccccc1CNc1cc(Cl)cc(Cl)c1	?	?	?	-2%	0.8%	17%	-5%	4%
CC(=O)/C(=N/Nc1ccccc1C)N1CCOCC1	1%	100%	-24%	5%	-3.4%	-3%	-7%	-18%
CN(CCOc1ccc(Cl)cc1)C(=O)c1ccc2c(=O)n3c(nc2c1)CCC3	1%	-9%	18%	-2%	.	.	.	.
CC(C)N(C1=CC(=O)OC12CCCCC2)C(C)C	-1%	33%	23%[46.1 µM]	4%	.	1%	1%	.
O=C(/C=C/c1ccccc1)NCCS(=O)(=O)N1CCN(c2ccccc2)CC1	-11%	-9%	18%	-12%	.	.	2%	.
Cc1nonc1CN(C)C(=O)c1ccc(OC2CCN(Cc3ccccn3)CC2)cc1	3%[46.1 µM]	-11%	7%[46.1 µM]	23%	.	-2%	0%	.
COc1ccc(-c2cn(-c3ccc(C)c(C)c3)c(=S)[nH]2)cc1OC	0%	-5%	-2%	?	.	10%	-1%	.
CCc1ccc(OCCOCC(O)CN(CCO)CCO)cc1 (stereo not drawn)	5%	-12%	10%	-15%	0.4%	-5%	-23%	1%
CCOC(=O)C1CCCN(C(=O)c2cc(S(=O)(=O)N3CCCCC3)ccc2Cl)C1 (stereo not drawn)	-29%	3%	-19%	?	.	.	2%	.
COc1ccc(OC)c(CNC(=O)c2c(C)oc3ncn(CC(C)C)c(=O)c23)c1	-5%[46.1 µM]	.	.	4%	-3.9%	.	.	13%
COc1cc2c(cc1OC)CN(C(=O)c1ccncc1)CC2	.	1%	.	-8%	.	1%	1%	.
O=S(=O)(c1cccnc1)N1CCn2cccc2C1c1ccccc1F (stereo not drawn)	5%	1%	8%	-23%	.	.	-1%	.
Cc1ccccc1Sc1ncccc1[N+](=O)[O-]	15%	12%	?	-19%	.	.	.	.
OC12CCCCC1C(c1ccc3c(c1)OCO3)N(Cc1ccc(F)cc1)CC2 (stereo not drawn)	-4%	10%	-6%	-28%	3.6%	6%	-1%	8%

(listing goes on)
SMILES	LASV entry inh	RE007 growth inh	Marburg entry inh	StopGo reporter	Cruzain Triton	NS1 function inh	SARS PLpro yeast	Cruzain noTriton
Cc1cccc(C2Nc3ccccc3C(=O)N2c2ccc(F)cc2)n1 (stereo not drawn)	?	-7%	-1%	-22%	-2.0%	10%	-14%	18%
CCOC(=O)c1c(-c2ccncc2)csc1N	-13%	4%	0%[46.1 µM]	5%	3.3%	-4%	0%	-11%
CCOc1ccc(CN(C)CC(=O)Nc2cc(C)c(C)cc2[N+](=O)[O-])cc1	-6%	?	-7%[46.1 µM]	4%	.	.	0%	.
COc1cc2ccccc2cc1C(=O)Nc1ccc2oc(-c3cccc(Cl)c3Cl)nc2c1	-16%[46.1 µM]	.	.	20%	-0.4%	.	.	7%
CN1CC2(C)CN(C(c3ccccc3)c3ccccc3)CC(C)(C1)C2O (stereo not drawn)	1%	4%	-10%	-10%	-0.8%	-2%	0%	4%
O=C(Nc1ccc(F)c(Cl)c1)c1ccc2c(c1)OCO2	-10%	-29%	-10%	15%	.	-26%	-4%	.
CS(=O)(=O)N1CCN(c2ccc([N+](=O)[O-])c(NCc3cccnc3)c2)CC1	-4%[46.1 µM]	3%	-18%[46.1 µM]	-12%	.	0%	-1%	.
O=C(NCc1ccc(F)cc1)C1CCC(CNS(=O)(=O)c2ccccc2)CC1 (stereo not drawn)	.	-4%	.	-1%	.	-1%	-1%	.
O=C(NCc1ccccc1)C1=C[C@@H](c2csc3ccccc23)C[C@@H](OCc2ccc(CO)cc2)O1	.	1%	.	3%	.	16%	-2%	.
CC1(C)Cc2ccccc2-c2nnnn21	6%	-8%	9%	.	7.9%	3%	-6%	9%
COc1ccccc1-c1nnc(-c2ccc(C)cc2)o1	?	-7%	?	45%[activator]	.	.	.	.
Cc1nnc(SCC(=O)N(C2CCCCC2)C2CCS(=O)(=O)C2)n1N (stereo not drawn)	19%	-14%	-3%[46.1 µM]	23%	.	.	3%	.
CCN1CCCC1CNC(=O)c1cc2c(-c3cccc(OC)c3)nn(C)c2s1 (stereo not drawn)	?	5%	?	-20%	-4.4%	-3%	6%	13%
COc1cccc(/C=C/c2ccc3ccccc3n2)c1OC(C)=O	?	-12%	?	-89%	.	-38%	-3%	.
N#C/C(=C(/O)c1cccs1)c1nnc2n1CCCCC2	-17%	5%	12%[46.1 µM]	1%	.	.	-3%	.
Cc1c(CC(=O)NCCc2ccc(Cl)cc2)c(=O)oc2c(C)c3occ(C(C)(C)C)c3cc12	14%[46.1 µM]	.	11%[46.1 µM]	-18%	-1.5%	.	.	8%
Cc1ccc(N(Cc2cc(=O)[nH]c3ccccc23)C(=O)C(C)C)cc1	.	11%	.	-18%	.	3%	0%	.
CCOC(=O)c1c(-c2ccccc2)nc2ccccn12	?	18µM*	3%	-29%	-3.3%	-130%	-33%	-4%
O=C(COC(=O)c1n[nH]c2ccccc12)c1cccc(Br)c1	-16%	5%	-12%	-21%	.	-11%	-13%	.
Fc1ccccc1NC(=S)NN(Cc1ccccc1)c1ccccc1	18%	-4%	1%	37%[activator]	-4.9%	-10%	8%	-14%
CCCCN(Cc1nc2ccccc2c(=O)[nH]1)C(=O)c1nn(C)c(=O)c2ccccc12	3%[46.1 µM]	-4%	?	-24%	.	.	2%	.
O=C(C1=C[C@H](c2ccc3c(c2)OCO3)C[C@H](OCCCCO)O1)N1CCN(Cc2ccc3c(c2)OCO3)CC1	.	1%	.	0%	.	-8%	0%	.
CC1(C)CC(=O)C(C2C3=C(CC(C)(C)CC3=O)Oc3c(Br)cc(Br)cc32)=C(O)C1 (stereo not drawn)	.	1%	.	?	.	9%	-1%	.
O=C(Cn1nnc(-c2ccccc2Cl)n1)N/N=C/c1ccc2c(c1)OCO2	3%	-5%	-10%	-4%	-4.4%	6%	2%	-21%
Cc1oc2ccccc2c1-c1cn2c(n1)SCC2	20%	8%	10%	26%	-2.0%	-10%	-4%	-10%

In another format: entries from further up
Results follow in this order: LASV entry inh | RE007 growth inh | Marburg entry inh | StopGo reporter | Cruzain Triton | NS1 function inh | SARS PLpro yeast | Cruzain noTriton
O=C(NCc1ccc(F)cc1)C1CCC(CNS(=O)(=O)c2ccccc2)CC1 (stereo not drawn)
 : . | -4% | . | -1% | . | -1% | -1% | .
CC(=O)/C(=C(/O)c1ccccc1)c1nc2ccccc2[nH]1
 : 12% | -10% | -10% | 13% | . | . | -1% | .

Next results
SMILES	LASV entry inh	RE007 growth inh	Marburg entry inh	StopGo reporter	Cruzain Triton	NS1 function inh	SARS PLpro yeast	Cruzain noTriton
Cc1cc(C(=O)Nc2ccc3c(c2)CCC3)ccc1[N+](=O)[O-]	?	5%	?	24%	.	.	.	.
COc1ccc(Br)cc1C(=O)Nc1ccc2oc(-c3cccnc3)nc2c1	19%[46.1 µM]	.	4%[46.1 µM]	-16%	1.3%	.	.	2%
O=C1CSC(=S)N1/N=C/c1ccc(O)c(O)c1O	.	-16%	.	-17%	.	12%	3%	.
Cc1cccc(C)c1OCc1cc(C(=O)N2CCCC2c2nonc2C)no1 (stereo not drawn)	?	-2%	?	8%	.	-43%	3%	.
COc1cccc(NC(=O)CN(C)C(=O)c2ccc3c(c2)CC(c2ccccc2)OC3=O)c1 (stereo not drawn)	?	22%	-26%	-1%	.	.	2%	.
Cn1c(C(=O)N2CCC(C(=O)NCCc3ccccc3)CC2)cc2sccc21	.	.	?	-8%	-1.1%	.	.	?
CC(Sc1ncc(C(F)(F)F)cc1Cl)C(=O)NC(N)=O (stereo not drawn)	.	-24%	-10%[46.1 µM]	-8%	.	.	8%	.
O=C(COc1ccc(/C=N/NS(=O)(=O)c2ccccc2)cc1)N1CCOCC1	-2%	-9%	1%	62%[activator]	.	.	0%	.
COc1ccccc1C(OC(=O)c1cccs1)C(=O)NCc1ccco1 (stereo not drawn)	?	4%	-21%	-30%	-5.9%	-3%	1%	1%
CCN(CC(=O)Nc1ccccc1OC)C(=O)CCc1ccccc1	11%[46.1 µM]	3%	?	13%	.	7%	2%	.
CC1CCCN(C(=O)c2cc3c(=O)n4ccccc4nc3s2)C1 (stereo not drawn)	-25%[46.1 µM]	3%	-11%[46.1 µM]	38%[activator]	.	-27%	-1%	.
CCn1c(C(=O)N2CCC(C(=O)N3CCN(c4ccccn4)CC3)CC2)cc2sccc21	.	-1%	0%	0%	-5.4%	-23%	3%	?
O=C(Nc1cccnc1)c1cc(-c2cccc(Br)c2)nc2ccccc12	?	3%	?	?	.	-3%	-11%	.
